# Compound activity from PubChem.
# gsp ag: gsp mutant agonism. Potency, µM (highest dose often 76.9 µM), inactives show top-dose activation (cAMP increase), usual class: activators. AID 624287. 0.13% of 340,000 active. gsp mutant cells, cAMP HTRF, 30 min; control for the full effect not named in the record; active = well fitted activation curve with a large enough effect; inconclusive = small, poorly fitted or top-dose-only effect, or another doubt; inactive = no such curve, though single readings can be large or run the other way; cell line not stated here;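 also: phosphodiesterase inhibitor Ro 20-1724 added with compounds to block cAMP breakdown; potency is read from the fitted curve at half-maximal effect; nearly all actives have a fitted effect of over 60% in size; about a fifth of the inactives were tested at one dose only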
#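 Cells stably selected in G418 were plated at 2000/well, grown 16-24 hr, then given compounds in DMSO with the PDE inhibitor […] (300 uM solution added) for 30 min at 37C; cAMP was read by HTRF.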
# Menin MLL FP FL: inhibitors of human menin-MLL interaction, wild-type MLL peptide; Fluorescence polarization, fluorescein-MLL peptide displacement from menin; FP activity change, % at 61.4 µM; 290,000 tested, under 10 active; AID 1766; inconclusive = falling polarisation curve, or a change in total fluorescence; inactive = total fluorescence flat and polarisation flat or rising; no compound was filed as active; the % refers to the polarisation; negative = inhibition;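 also: % of control where 0% means no effect; inhibitors lower the polarisation; unlabelled MLL peptide was the positive control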
# gsp antagonist: gsp mutant antagonism; gsp-mutant cells, cAMP HTRF, 30 min; control for the full effect not named in the record; Potency, µM (series often up to 76.9 µM), inactives show at the top dose activity change, negative = inhibition, most hits filed as inhibitors; 0.4% of 340,000 active; AID 624288; active = falling curve of any shape with a large fitted effect; inconclusive = falling curve, mostly with a smaller effect; inactive = flat or rising curve; cell line not stated here;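 also: intracellular cAMP measured with PDE inhibitor Ro 20-1724 present during compound exposure; potency is read from the fitted curve at half-maximal effect; % is scaled to controls: 0 for no effect and ±100 for the full control effect; nearly all actives have a fitted effect of over 65% in size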
#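 Cells, 2000/well, grown 16–24 h in DMEM 10% FBS with 0.5 mg/ml G418, then compounds plus […] (300 uM addition stock), 30 min at 37C. cAMP read by HTRF (cAMP-d2 and anti-cAMP antibody-K in lysis buffer) after 30 min RT.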
# TRPV1 potentiator: enhances activation of the human vanilloid receptor TRPV1. TRPV1-expressing cells, Fluo-8 calcium influx, capsaicin EC20 potentiation; host cell line not named in the record; control for the full effect not named in the record. potentiation, % at 8.33 µM. 0.02% of 320,000 active; active means potentiation above 80%; inconclusive means 30% to 80%; inactive means below 30%; also: 0% is about no effect
# Target sequence (Q8NER1 whole entry, looked up): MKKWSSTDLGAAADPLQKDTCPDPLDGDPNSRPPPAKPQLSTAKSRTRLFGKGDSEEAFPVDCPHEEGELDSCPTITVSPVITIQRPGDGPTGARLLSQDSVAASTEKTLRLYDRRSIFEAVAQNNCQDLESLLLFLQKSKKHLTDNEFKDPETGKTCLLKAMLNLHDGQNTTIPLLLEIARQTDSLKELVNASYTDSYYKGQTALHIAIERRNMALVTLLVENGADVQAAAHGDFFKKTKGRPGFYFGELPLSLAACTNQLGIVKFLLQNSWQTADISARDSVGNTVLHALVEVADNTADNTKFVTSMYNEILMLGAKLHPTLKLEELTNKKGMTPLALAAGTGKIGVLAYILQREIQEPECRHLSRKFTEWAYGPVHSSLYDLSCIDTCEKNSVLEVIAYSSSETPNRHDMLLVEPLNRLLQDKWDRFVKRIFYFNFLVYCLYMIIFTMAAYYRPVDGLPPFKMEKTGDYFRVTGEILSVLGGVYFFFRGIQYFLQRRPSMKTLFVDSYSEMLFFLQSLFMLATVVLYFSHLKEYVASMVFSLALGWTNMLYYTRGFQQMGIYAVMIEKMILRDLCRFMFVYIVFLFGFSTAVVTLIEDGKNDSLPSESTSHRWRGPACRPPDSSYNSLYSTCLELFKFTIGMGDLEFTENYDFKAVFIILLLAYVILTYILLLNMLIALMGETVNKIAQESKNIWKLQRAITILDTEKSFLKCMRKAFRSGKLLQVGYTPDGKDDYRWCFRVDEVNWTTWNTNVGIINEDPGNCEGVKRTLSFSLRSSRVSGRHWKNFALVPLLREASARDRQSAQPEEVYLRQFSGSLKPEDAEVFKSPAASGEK
#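 Fluo-8 calcium influx in TRPV1-expressing cells, kinetic read (ex 480/em 520 nm). Compound added and read 3 min for agonist activity, followed by capsaicin at EC20 final and 2 min further read for enhancement.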
# ClpP mod: qHTS Assay for Activators of ClpP; ATP-dependent Clp protease proteolytic subunit (Bacillus subtilis (strain 168)), P80244; purified B. subtilis ClpP, FRET peptide cleavage, 20 min; Potency, µM (top dose mostly 57.5 µM), without a hit: top-dose activity change, negative = active; 1.9% of 340,000 active; active = well fitted falling curve with a large enough effect; inconclusive = small, poorly fitted or top-dose-only effect; inactive = no such curve, though single readings can be large or run the other way; also: potency is read from the fitted curve at half-maximal effect; the source files actives as falling curves though it sought activators and does not explain the sign; nearly all actives have a fitted effect of over 65% in size; many hits overshoot -100%
# Target sequence (P80244 whole entry, looked up): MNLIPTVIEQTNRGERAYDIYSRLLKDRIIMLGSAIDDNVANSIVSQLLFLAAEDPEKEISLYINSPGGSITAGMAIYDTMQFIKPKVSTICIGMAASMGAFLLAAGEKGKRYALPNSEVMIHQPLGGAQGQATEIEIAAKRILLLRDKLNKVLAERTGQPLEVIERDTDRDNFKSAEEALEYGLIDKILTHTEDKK
#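 ClpP 10 microg/mL final, pH 8 Tris/KCl buffer with BSA, glycerol, Tween-20; compound pinned in; FRET-FV substrate; RT 20 min; Ex320/Em430; ΔFRET vs ADEP 5.8 microM, DMSO, no enzyme.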
# CtBP-E1A inh: CtBP/E1A binding inhibition | activity change, % (no concentration beside the values) | AID 651724 | 0.49% of 340,000 active | AlphaScreen GST-E1A/His-CtBP binding, 1536-well; hits give low values; control for the full effect not named in the record; in the data active means activity change below about -65%; inconclusive means about -30% to -65%; inactive means above about -30%; also: % is scaled to controls: 0 for no effect and ±100 for the full control effect; compound concentration not given in the record
#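 Steps: dispense buffer (Tris pH 8.0, NaCl 300 mM, TCEP 1 mM, BSA, Tween 20); add 5X protein mix (GST-E1A, His-CtBP, 125 nM each); pin 23 nL compound; 2 h at 37 °C, dark; add 5X beads (50 ug/mL); 1 h; read.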
# Sfp inh: blocks B. subtilis Sfp PPTase activity. Q9F4F7. Biochemical Sfp PPTase activity, qHTS. Potency, µM, inactives show max response, negative = inhibition, most hits filed as inhibitors. 3.5% of 310,000 active. AID 1490; active = well fitted inhibition curve with a large enough effect; inconclusive = small, poorly fitted or top-dose-only effect, or another doubt; inactive = no such curve, though single readings can be large or run the other way;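 also: the enzyme is Sfp with the accession as filed and its product quenches rhodamine fluorescence; potency is read from the fitted curve at half-maximal effect; 0% = enzyme reaction without inhibitor and -100% = no enzyme wells; top concentration of the series not given in the record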
#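 Compounds were incubated with enzyme (final 15 nM) for 15 min at room temperature before substrate addition started the reaction. Fluorescence at 525 nm excitation, 598 nm emission was recorded immediately and after 30 minutes.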
# * hit, by the source's call; ? = inconclusive; / = no result given; & = joins results of further samples; [ ] = remark or other dose.
SMILES,gsp ag,Menin MLL FP FL,gsp antagonist,TRPV1 potentiator,ClpP mod,CtBP-E1A inh,Sfp inh
CCCC(C(=O)c1ccccc1)n1cncn1 (stereo not given),8.1%,1.4,10.4%,-2.1,1.4%,-0.8,6.0%
CN(CC(=O)Nc1cccc(F)c1)C(=O)c1ccc(COc2ccccc2)o1,19.5%,/,9.8%,29.1,0.6%,14.6,/
CCS(=O)(=O)N1CCN(C(=O)c2cccnc2)CC1,41.4%,1.8,11.1%,3.0,0.2%,-1.1,11.7%
CC(=O)Nc1ccc(S(=O)(=O)Nn2cnnc2)cc1,13.7%,0.1,3.9%,-0.5,/,0.4,9.7%
COc1ccc2c(c1)nc(N)n2Cc1ccccc1,24.6%[15.4 µM],7.0,6.0%,/,-1.4%,-8.5,-22.0%
Cc1ccc(-c2nnc(N3CCN(C(=O)COc4ccccc4)CC3)c3ccccc23)cc1,14.8%,-2.2,?,-10.2,-1.0%,-12.6,-12.6%
CCn1c(NCc2cc(OC)c(OC)c(OC)c2)nc2ccccc21,-35.6%[inhibitor],-3.5,1.9%,4.7,/,5.8,-0.9%
COC(=O)C1=C(C(=O)OC)[C@@H]2N(C)c3ccc(OC)cc3[C@@]23C[C@@H](C(=O)OC)N(S(=O)(=O)c2ccc([N+](=O)[O-])cc2)C3=N1,-0.4%,-0.7[11.7 µM],5.9%,-4.7,-0.4%,?,14.7%&7.9%
Cc1cccc(C(=O)NC(NC(=S)Nc2ccc(S(N)(=O)=O)cc2)C(Cl)(Cl)Cl)c1 (stereo not given),-6.5%,2.8,-2.9%,19.0,1.2%,-2.8,-8.4%
Fc1ccc(C2=NN(c3ccccc3)C(c3ccco3)C2)cc1 (stereo not given),12.0%,-0.6,1.9%,3.1,4.6%,177.0,-1.6%

# Given with each value named: part of the list above
COc1ccc2c(c1)nc(N)n2Cc1ccccc1
  gsp ag: 24.6%[15.4 µM]
  Menin MLL FP FL: 7.0
  gsp antagonist: 6.0%
  TRPV1 potentiator: /
  ClpP mod: -1.4%
  CtBP-E1A inh: -8.5
  Sfp inh: -22.0%
Cc1ccc(-c2nnc(N3CCN(C(=O)COc4ccccc4)CC3)c3ccccc23)cc1
  gsp ag: 14.8%
  Menin MLL FP FL: -2.2
  gsp antagonist: ?
  TRPV1 potentiator: -10.2
  ClpP mod: -1.0%
  CtBP-E1A inh: -12.6
  Sfp inh: -12.6%

# Continuation:
SMILES,gsp ag,Menin MLL FP FL,gsp antagonist,TRPV1 potentiator,ClpP mod,CtBP-E1A inh,Sfp inh
Cc1cccc(CNC(=O)C2CCC(=O)N(CC3CCCCC3)C2)c1 (stereo not given),-0.5%,/,/,/,0.7%,1.6,/
O=C(CCCn1ncn2c(cc3occc32)c1=O)NCc1ccccc1F,1.6%,2.6,-1.4%,2.3,0.7%&0.7%,3.0,13.7%
COCc1ccc(CN2CCC(C(=O)Nc3cccc(-c4cccc(Cl)c4)c3)CC2)o1,-30.0%[inhibitor],/,-22.3%,14.0,-3.0%,?,-29.1%
COc1ccc(CC(=O)NCc2ccc3c(c2)cc(C)n3C)cc1OC,-0.8%,1.2,-5.1%,-22.3,-6.4%,/,-1.2%
C[C@H](CO)N1C[C@H](C)[C@@H](CN(C)C(=O)Nc2ccccc2)Oc2c(NC(=O)C3CCCCC3)cccc2C1=O,-21.2%,/,-4.5%,/,-0.2%,2.8,/
Cn1c(=O)[nH]c(=O)c2c1nc(NC1CCCCC1)n2Cc1ccccc1,-30.2%,3.8,2.7%,-1.7,1.4%,-0.3,10.5%
O=C(CSCc1cnn(-c2ccccc2)c1-n1cccc1)NCc1cccnc1,20.9%,0.9,-3.2%,-1.1,/,-1.2,4.0%
COc1cccc(C(=O)NNC(=S)NC2CCCCC2)c1,-1.3%,-2.6,12.0%,-3.1,6.9%,-2.1,3.9%
COc1ccc(CCSc2nnc(C3CCCCC3)n2N)cc1,4.9%,-1.8,1.7%,15.2,-2.2%,-1.0,20.6%
Cc1cccc(Nc2nnc(SCC(=O)NCC3CCCO3)s2)c1 (stereo not given),5.7%[15.4 µM],/,6.5%,/,-8.3%,-2.1,/
Cc1c(Br)c([N+](=O)[O-])nn1C(C)C(=O)NCc1cccs1 (stereo not given),-0.5%,-1.5,6.5%,20.0,0.4%,7.4,-0.1%
COc1cc(C)c(S(=O)(=O)n2c([N+](=O)[O-])cnc2C)cc1C,1.5%[15.4 µM],-3.3,11.7%,-20.2,-0.6%,7.9,12.6%
CCOCCn1c(CN2CCN(CCO)CC2)nc2c1c(=O)n(C)c(=O)n2C,-2.9%,-1.7,9.6%,-3.5,-2.4%,1.6,8.2%
COc1cccc(CNC(=O)COc2cc(O)c3c(c2)OC(C)(C)CC3=O)c1,/,-1.1,-7.0%,-18.1,-2.1%,1.4,1.1%
CCc1nnc(NC(=O)CSc2nnc(-c3cccnc3)n2CCc2ccccc2)s1,7.1%,-2.6,-14.8%,-15.0,-1.3%,-4.6,-17.6%
O=C(Cc1cn(-c2ccccc2)nc1-c1ccccc1)N1CCCCC1,-0.5%,-0.2,-17.2%,-3.6,/,-2.3,0.7%
C[N+]1(CN2C(=O)C3C4C=CC(C4)C3C2=O)CCCCC1 (stereo not given),-1.5%,0.8,11.5%,/,1.8%,/,3.7%
COc1ccc(CNC(=S)Nc2cccc(OC)c2)cc1,5.4%[15.4 µM],3.1,-1.1%,-3.3,-2.6%,-7.2,7.7%
CCOC12CC(C)(C)CC(C)(CC3=C1C(=O)CC(C)(C)C3)C2 (stereo not given),-16.5%,5.4,-7.7%,-15.5,-2.5%,10.9,3.6%
O=C(O)c1cccc(-c2nnn(Cc3ccccc3)n2)c1,2.4%,-1.1,-15.0%,15.6,-0.2%,2.7,17.9%
O=C1C(=O)N(c2ccccn2)C(c2ccc(Br)cc2)/C1=C(/O)c1ccc(Br)cc1 (stereo not given),?,4.3,-3.5%,-2.4,2.9%,/,15.0%
Cc1cn([C@H]2C[C@H](O)[C@@H](CNCc3cc(Br)ccc3OCc3ccccc3)O2)c(=O)[nH]c1=O,-49.1%[inhibitor],/,/,/,-0.3%,-12.1,/
O=c1c2cc(NC(=S)N3CCC(N4CCCCC4)CC3)ccc2nc2n1CCCCC2,22.6%[15.4 µM],-1.6,2.1%,1.4,0.1%,1.8,79.4µM*
Cc1cc(C)cc(-n2nnc(C(=O)NCc3ccccc3)c2N)c1,25.7%,0.8,9.6%,10.8,-5.5%,-7.7,10.3%
CCC(=O)OCC(=O)N=c1sccn1Cc1ccc(C)cc1,-4.0%,/,0.4%,-1.4,-3.1%,-15.5,1.7%
O=C(Nc1ccc(-c2ccco2)cc1)C1CCCN(Cc2ccc(CO)o2)C1 (stereo not given),-18.2%,4.5,3.4%,5.3,-1.5%,-4.9,44.7µM*
CCn1nc2cc(C(=O)NCc3cc(C(F)(F)F)cc(C(F)(F)F)c3)ccc2c1OC,/,0.2,-4.2%,?,4.6%,1.1,20.8%
c1ccc(-c2nccc(-c3ccc4c(c3)OCO4)n2)cc1,-4.0%,8.5,3.3%,-5.2,/,14.3,-8.5%
Cc1cc(-c2ccccc2C(=O)Nc2ccccc2O)on1,-2.7%,3.5,3.0%,-8.6,/,0.0,15.1%
Cc1ccc(NC(=O)C2CCN(C(=O)NC3CCCCC3)CC2)c(C)c1,-35.3%[inhibitor],-1.8,2.9%,?,-1.8%,-1.8,6.1%
O=C(c1c(F)cccc1F)N1CCCC(c2nc(-c3ccc(Cl)cc3)no2)C1 (stereo not given),0.3%,1.3,-17.8%,-6.1,-0.8%,-0.6,-10.5%
CC(=O)Nc1ccc(S(=O)(=O)Nc2cc(C)cn(Cc3ccc(C)cc3)c2=O)cc1,-0.7%[15.4 µM],?,-18.9%,0.3,/,20.8,1.4%
OC(CCN1CCCCC1)c1ccc(-c2ccccc2)cc1 (stereo not given),-1.3%,0.2,18.0%,7.4,-2.6%,1.5,11.9%
CCn1c(CNc2ccc(F)cc2)nnc1SCC(=O)N1CCCc2ccccc21,-28.3%,2.2,-4.6%,0.8,-1.6%,-7.0,5.2%
CCOc1cc(N2CCOCC2)c(OCC)cc1NC(=O)c1cc(C)cc(C)c1,27.8%[15.4 µM],3.7,-57.2%,3.0,/,16.6,-27.7%
COc1ccc2ccccc2c1CNC(C)c1ccccc1 (stereo not given),-2.2%,0.0,-8.7%,-16.1,-14.0%,/,-20.9%
Cc1ccc(/C=N/NC(=O)CNC(=O)c2ccc(C)c([N+](=O)[O-])c2)o1,21.3%,1.6,-0.8%,-12.1,-4.9%,/,4.6%
CC(C)COc1ccc(C(=O)OCC(=O)N(C)CC(=O)Nc2ccc(F)cc2)cc1,?,/,1.2%,-17.9,1.3%,0.0,/
O=C1CSC(=S)N1CC1CCCO1 (stereo not given),-28.4%,?,3.4%,-10.0,-0.3%,7.3,-16.7%
CCCC(=O)N1c2ccccc2C(N(C(C)=O)c2ccccc2)CC1C (stereo not given),-53.3%[inhibitor],-1.9,-2.0%,-10.4,-2.9%,-2.9,5.8%
CCCCN(C)CCn1c(=S)[nH]c2ccc(N3CCOCC3)cc2c1=O,33.4%,3.0,-3.6%,7.0,-1.4%,2.3,-15.1%
COc1ccc(N=c2scc(-c3ccc(OC)cc3)n2CCO)cc1,?,3.8,?,?,0.2%,?,8.8%
O=[N+]([O-])c1ccc2c(c1)nnn2-c1ccccc1,?,5.6,-12.9%,-16.5,/,-7.7,1.1%
CCO[C@H]1OC(C(=O)NCc2nc3ccccc3[nH]2)=C[C@@H](c2ccccc2)[C@@H]1CCCO,2.6%,-0.6,-13.1%,-11.3,0.1%,3.0,1.1%
Cc1ccc(Sc2ccc(CO)cc2[N+](=O)[O-])cc1,10.5%[15.4 µM],-0.3,11.9%,-16.9,/,-3.0,-10.2%
COc1cccc(-n2nnc3c(=O)n(CC(=O)N4CCC(C)CC4)cnc32)c1,2.6%,-0.3,0.4%,3.5,-11.3%,6.7,-2.1%
O=C(O)C1OC(Oc2cc3oc(-c4ccccc4)cc(=O)c3c(O)c2O)C(O)C(O)C1O (stereo not given),-7.5%,8.1,-2.8%,6.6,0.6%,/,8.91µM*
CCC1=NN(C(=O)C(=O)Nc2ccccc2OC)C(O)(C(F)(F)F)C1 (stereo not given),49.3%,2.3,?,-8.7,1.6%,90.1,5.3%
